Cruzain inh noDet – qHTS Assay for Promiscuous and Specific Inhibitors of Cruzain (without detergent); 2.3% of 200,000 active; purified cruzain, Z-FR-AMC fluorescence, no detergent; Cruzipain (Trypanosoma cruzi), P25779; Potency, µM, for the others: max response, negative = inhibition, hits mostly inhibitors;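 also: plate controls were enzyme without inhibitor for no effect and buffer without enzyme for full effect; nearly all actives have a fitted effect of over 40% in size; top concentration of the series not given in the record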
Target sequence (P25779 123-467 limits assumed): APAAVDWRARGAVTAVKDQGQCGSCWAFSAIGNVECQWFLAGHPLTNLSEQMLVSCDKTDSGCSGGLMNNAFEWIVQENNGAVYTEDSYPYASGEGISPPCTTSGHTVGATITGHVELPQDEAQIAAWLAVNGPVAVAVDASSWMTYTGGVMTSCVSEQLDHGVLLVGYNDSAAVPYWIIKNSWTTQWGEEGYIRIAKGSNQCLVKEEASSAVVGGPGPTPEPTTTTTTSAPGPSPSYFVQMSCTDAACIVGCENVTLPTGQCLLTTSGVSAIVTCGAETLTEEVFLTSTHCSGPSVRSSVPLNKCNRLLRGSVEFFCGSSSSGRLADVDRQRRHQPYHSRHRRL
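Purified cruzain at 1.5 nM, pre-incubated 15 min with compound at room temperature in 100 mM sodium acetate pH 5.5, 5 mM DTT, 0.00005% Triton X-100. Reaction started with 2 uM Z-FR-AMC; AMC fluorescence increase over 60 s gives rate.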
LASV entry inh – qHTS for Inhibitors of binding or entry into cells for Lassa Virus; AID 540256, 2011; Lassa virus pseudotype entry inhibition, cell reporter; control for the full effect not named in the record; Potency, µM (titrated, usually from 37.9 µM), inactives show top-dose activity change, negative = inhibition, hits mostly inhibitors; 1.2% of 300,000 active; active means well fitted inhibition curve with a large enough effect; inconclusive means small, poorly fitted or top-dose-only effect, or effect the other way; inactive means flat fitted curve, though single readings scatter; tested in HEK293 cells; also: % is scaled to controls: 0 for no effect and ±100 for the full control effect; nearly all actives have a fitted effect of over 50% in size; luciferase read-out
NS1 inh – qHTS Assay for Inhibitors of Influenza NS1 Protein Function; S. cerevisiae slowed by influenza A NS1, growth recovery by OD600; Potency, µM (doses to about 46.1 µM), inactives show at the highest dose activity, positive = more growth; 0.4% of 270,000 active; AID 2326, 2010; active means well fitted rising curve with a large enough effect; inconclusive means small, poorly fitted or top-dose-only effect; inactive means no such curve, though single readings can be large or run the other way; also: nearly all actives have a fitted effect of over 50% in size
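A cell-based growth assay was used: compounds that relieve NS1-induced slow growth of budding yeast raise OD600. Assay medium was yeast nitrogen base with ammonium sulphate and -URA supplement, pH 6.0, with 2% galactose.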
Cruzain Triton – qHTS Assay for Promiscuous and Specific Inhibitors of Cruzain (with detergent). Cruzipain (Trypanosoma cruzi), P25779. purified cruzain, Z-FR-AMC fluorescence, 0.01% Triton. Potency, µM, inactives show max response, negative = inhibition, most hits filed as inhibitors. 0.43% of 200,000 active;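 also: plate controls were neutral wells for no effect and buffer without enzyme for full effect; nearly all actives have a fitted effect of over 40% in size; top concentration of the series not given in the record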
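Compounds were screened in titration against cruzain (1.5 nM) with 0.01% Triton X-100 to counter colloidal aggregation. Activity was the AMC fluorescence increase over 60 s after adding 2 uM Z-FR-AMC at pH 5.5.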
SARS PLP yeast – qHTS of Yeast-based Assay for SARS-CoV PLP | 0.19% of 330,000 active | Potency, µM (highest dose often 32.9 µM), for inactives: at the highest dose activity, positive = growth rescue | S. cerevisiae expressing SARS-CoV PLpro, growth rescue; control for the full effect not named in the record | AID 485353, 2010; active means well fitted rising curve with a large enough effect; inconclusive means small, poorly fitted or top-dose-only effect; inactive means no such curve, though single readings can be large or run the other way; also: 0% is about no effect; nearly all actives have a fitted effect of over 55% in size; growth read by luminescence after 48 h
RE007 growth inh – qHTS Assay for Inhibitors of the HIV-1 protein Vpr. S. pombe RE007 Vpr strain, BacTiter-Glo ATP luminescence, 24 h; control for the full effect not named in the record. AID 651644, 2012. 0.21% of 360,000 active. Potency, µM (highest dose often 92.2 µM), inactives show top-dose activity change, negative = less growth; active = well fitted falling curve with a large enough effect; inconclusive = small, poorly fitted or top-dose-only effect; inactive = no such curve, though single readings can be large or run the other way;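 also: % is scaled to controls: 0 for no effect and ±100 for the full control effect; nearly all actives have a fitted effect of over 50% in size; the assay follows cell death caused by Vpr and the record does not say whether a fall means rescue or toxicity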
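Fission yeast strain RE007, carrying one chromosomally integrated HIV-1 vpr copy, was seeded at OD 0.01 in PMG+AL medium with 23 nL pinned compound. After 24 h at 30 °C and 99% humidity, viability was read by BacTiter-Glo luminescence.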
2A StopGo – High Throughput Screening for Foot and Mouth Disease Virus Antivirals. human cells with a luciferase reporter of 2A StopGo recoding; control for the full effect not named in the record. Potency, µM (series often up to 57.9 µM), inactives show at the highest dose signal change, negative = less light. 1.2% of 410,000 active; active = well fitted falling curve with a large enough effect; inconclusive = small, poorly fitted or top-dose-only effect; inactive = no such curve, though single readings can be large or run the other way; tested in HEK293T cells; also: % is scaled to controls: 0 for no effect and ±100 for the full control effect; nearly all actives have a fitted effect of over 45% in size; luciferase light after 4 h
Marburg entry inh – qHTS for inhibitors of binding or entry into cells for Marburg Virus; Marburg virus pseudotyped entry inhibition, cell reporter; control for the full effect not named in the record; about a third of the inactives were read at about 46 µM; 1.8% of 300,000 active; Potency, µM (doses to about 37.8 µM), for inactives: at the highest dose activity change, negative = inhibition, actives largely listed as inhibitors; active = well fitted inhibition curve with a large enough effect; inconclusive = small, poorly fitted or top-dose-only effect, or effect the other way; inactive = flat fitted curve, though single readings scatter; tested in HEK293 cells; about a fifth of its hits are not listed in these tables; also: % is scaled to controls: 0 for no effect and ±100 for the full control effect; luciferase read-out
* = called active by the depositor; ? = inconclusive; / = no result given; & = joins results of further samples; [ ] = remark or other dose. Unless noted, calls follow the shape of the dose curve; as a rule, active = well fitted curve in the direction sought with a large enough effect; inconclusive = small, poorly fitted or top-dose-only effect, or another doubt; inactive = no such curve, though single readings can be large; an effect the other way counts as inactive or inconclusive. Potency is read from the fitted curve at half-maximal effect. Compounds as they come; 4.7% or so of the library scored in one or more.

SMILES	Cruzain inh noDet	LASV entry inh	NS1 inh	Cruzain Triton	SARS PLP yeast	RE007 growth inh	2A StopGo	Marburg entry inh
COc1cccc(-c2cc(C(=O)Nc3cnn(Cc4ccc(F)cc4)c3)no2)c1	-17%	?	-4%	-0.1%	1%	6%	19%	11%
COc1ccc(C(=O)CNc2ccc(C)cc2C)cc1	/	3%	-11%	/	-3%	-17%	-23%	12%
O=C(c1cccc(S(=O)(=O)N2CCc3ccccc32)c1)N1CCCC(C(F)(F)F)C1 (stereo unspecified)	/	-13%	/	/	2%	-1%	-24%	-1%
CCOC(=O)CNC(c1ccccc1)c1cc(Br)ccc1NC(=O)CCN1CCOCC1 (stereo unspecified)	-1%	?	-17%	-1.2%	-96%	16%	-1%	?
Cc1ccc(S(=O)(=O)Oc2ccc(/C=C(/NC(=O)c3ccccc3)C(=O)O)cc2)cc1	/	0%	6%	/	0%	12%	-1%	3%[46.1 µM]
O=[N+]([O-])c1ccccc1S(=O)(=O)Oc1ccc(C(=S)N2CCOCC2)cc1	6%	?	9%	-1.9%	5%	-20%	-11%	?
O=C(Nc1ncccc1O)c1ccc(Cl)c(S(=O)(=O)N2CCCCC2)c1	/	11%	/	/	-43%	-11%	2%	-14%
C#CCN1C(=O)C(O)(CC(=O)/C=C/C=C/c2ccccc2)c2ccccc21 (stereo unspecified)	/	-12%	/	/	-3%	-4%	-23%	?
COCCCNC(=O)C(=O)NC1CCCCC1C (stereo unspecified)	/	/	2%	/	1%	4%	10%	/
Cc1ccc(-n2ncc3c(NC(C)c4ccccc4)ncnc32)cc1 (stereo unspecified)	-14%	6%[46.1 µM]	/	-4.4%	/	/	8%	/
CC(=O)Nc1ccc(S(=O)(=O)N2CCc3c(Cl)cccc3C2)cc1	0%	/	-9%	3.2%	?	1%	-3%	/
C/C(=N\NC(=O)c1ccccc1)c1c(O)n(C2CCCCC2)c(=O)[nH]c1=O	/	/	-4%	/	-4%	4%	-27%	/
O=P1(Nn2cnnc2)C=C(c2ccccc2)OC(c2ccccc2)=C1	-6%	7%	-2%	0.6%	0%	-12%	/	3%
CCOC(=O)CSc1nc(C(C)C)nc2sc(C)c(C)c12	/	2%	-5%	/	-1%	2%	-24%	-3%[46.1 µM]
Cc1ccccc1-c1nc(CS(=O)CC(=O)NCc2ccccn2)c(C)o1 (stereo unspecified)	/	18%[46.1 µM]	17%	/	-6%	1%	-3%	7%[46.1 µM]
CCC(=O)Nc1ccc(NC(=O)CSc2nnnn2-c2ccc3c(c2)OCCO3)cc1	/	3%	/	/	0%	-1%	?	0%[46.1 µM]
CC(=O)c1cccc(NC(=O)CCN2C(=O)C3C4CCC(C4)C3C2=O)c1 (stereo unspecified)	/	-15%	11%	/	11%	-23%	14%	-5%
CC(C)c1ccc(NC(=O)CSc2nc(-c3ccccc3F)nc3nc[nH]c23)cc1	?	-3%	8%	-0.4%	-21%	-2%	-1%	-10%
COc1ccccc1Nc1nc(-c2sc(NC(=O)c3ccccc3)nc2C)cs1	?	/	12%	3.3%	4%	-25%	-1%	0%
Cn1c(SCc2cccc(Br)c2)nc2ccccc2c1=O	/	/	3%	/	-7%	2%	?	/
CCn1c(=O)sc2cc(NS(=O)(=O)c3ccc(F)c(C)c3)ccc21	-4%	-17%[46.1 µM]	/	-8.1%	/	/	-8%	?
S=C(NCCCc1ccccc1)NC1CCCCC1	/	-18%[46.1 µM]	-98%	/	-8%	-16%	48%[activator]	-26%[46.1 µM]
COc1cc(OC)c(OC)cc1CNC(=O)CCN1C(=O)c2cccc([N+](=O)[O-])c2C1=O	/	16%[46.1 µM]	10%	/	-1%	-7%	9%	6%[46.1 µM]
Clc1ccccc1Cn1nnc2c(NCC3CC3)ncnc21	-4%	-6%	-2%	-1.0%	-6%	-7%	/	-9%
CCOC(=O)n1c(SCC(=O)N(CC)CC)nc2ccccc21	4%	4%	-13%	1.4%	4%	2%	-8%	13%
CC(C)c1ccc(N(CC(=O)O)S(=O)(=O)c2ccc3[nH]c(=O)c(=O)[nH]c3c2)cc1	-1%	37%[46.1 µM]	/	-4.1%	/	/	-11%	/
Fc1cc(Br)ccc1Nc1nc2ccccc2n2nnnc12	?	/	-8%	-3.0%	10%	1%	17%	/
CCCn1nc(C(=O)OCC(=O)Nc2ccc(C)cc2)c2ccccc2c1=O	/	-18%[46.1 µM]	/	/	5%	-1%	-5%	-10%[46.1 µM]
[O-][n+]1nc2ccccc2c2ccccc21	/	14%	/	/	/	15%	0%	8%
COc1cc(NC(=O)NCC2CCN(Cc3ccc(C)cc3)CC2)cc(OC)c1OC	-4%	30%	-3%	0.1%	4%	2%	2%&-9%	?
Cc1ccc(-c2nn(-c3ccccc3)cc2C(=O)NCCCN2CCOCC2)cc1	/	8%	4%	/	2%	14%	-3%	8%
C/C(=N/NC(=O)c1ccc2c(c1)OCO2)c1cccc(NC(=O)C(C)(C)C)c1	12%	8%	-10%	5.5%	-2%	-15%	29%	-1%[46.1 µM]
COc1ccc(CNC(=O)CCCCCn2c(=O)[nH]c3ccccc3c2=O)cc1	-9%	-9%[46.1 µM]	/	0.9%	/	/	0%	/
Nc1ccccc1SC1CC(=O)N(Cc2ccccc2)C1=O (stereo unspecified)	/	1%	/	/	2%	-3%	-17%	-1%[46.1 µM]
O=C(CNC(=S)N(Cc1ccccc1)Cc1ccccc1F)NCCc1ccc(Cl)cc1	/	0%	/	/	-5%	0%	0%	?
COc1ccc(C(CNC(=O)c2cccc(NS(=O)(=O)c3ccc(C)c(F)c3)c2)N(C)C)cc1 (stereo unspecified)	/	?	/	/	-5%	-4%	-14%	?
CCC(=O)N1c2ccc(S(=O)(=O)N3CCOCC3)cc2CC1C (stereo unspecified)	/	/	-5%	/	-4%	1%	-10%	/
CCc1ccc(NC(=O)Cn2c(=O)nc(-c3ccccc3F)c3cc(Cl)ccc32)cc1	2%	-7%[46.1 µM]	/	-1.6%	/	/	13%	/
Cc1cc(S(=O)(=O)N2CCCC2)ccc1OCC(=O)N1CCCCC1	/	7%	-4%	/	6%	3%	-21%	-2%[46.1 µM]
CCC(CO)NC(=O)c1cccc(S(=O)(=O)N2c3ccccc3CC2C)c1 (stereo unspecified)	10%	?	-4%	-0.2%	2%	2%	-24%	-26%
CCOC(=O)C1(c2ccccc2)CCN(CC(=O)Nc2cccc3ccccc23)CC1	8%	?	-33%	-5.4%	28%	3%	?	?
COc1ccc(Cn2c(CNC(=O)Cc3cccc([N+](=O)[O-])c3)nc3cccnc32)cc1	-10%	-15%[46.1 µM]	/	-5.1%	/	/	1%	/
CC(=O)N1CCc2cc(S(=O)(=O)NC(Cc3ccccc3)C(=O)Nc3ccc(Cl)cc3)ccc21 (stereo unspecified)	0%	18%[46.1 µM]	/	-0.5%	/	/	-17%	?
Cc1cccc(OCC(=O)NCC(=O)N/N=C/c2ccccc2)c1	/	6%[46.1 µM]	6%	/	1%	9%	6%	1%[46.1 µM]
COc1cccc(CC(=O)N2CCN(Cc3cccc(Cl)c3)CC2)c1	/	-26%	10%	/	-1%	-12%	-13%	-18%[46.1 µM]
CCCCCN1C(C(=O)c2ccccc2)=C(NC(C)=O)c2ccccc2S1(=O)=O	4%	?	/	-11%	/	/	16%	?
O=c1ncn(-c2cccc(Cl)c2)c2ccccc12	/	-19%	/	/	/	5%	-10%	-17%
COc1ccc(C(C#N)=C2C=CC(=NO)C(C)=C2Cl)cc1	/	-21%	/	/	/	3%	-8%	?
COc1cccc(CNC(=O)CCNS(=O)(=O)c2cccc3nonc23)c1	/	-4%[46.1 µM]	4%	/	4%	9%	11%	-24%[46.1 µM]
Cc1ccc(CNC(=O)c2cc(C)nn2-c2ccccc2)cc1	/	2%	-5%	/	1%	6%	-1%	14%
COC(=O)NNC(=O)c1ccccc1C	8%	20%[14.3 µM]	-1%	-1.2%	1%	-13%	2%	11%
Cc1ccc(NC2=NCCCS2)cc1Cl	/	13%	-12%	/	-3%	-10%	8%	-11%[46.1 µM]
CCCC(=O)Nc1nnc(S(=O)(=O)N(C)c2ccccc2)s1	1%	-2%[46.1 µM]	/	-3.2%	/	/	3%	/
Cc1ccc(O)c(CNc2cccc3cccnc23)c1	/	-1%	-40%	/	-5%	-24%	6%	-10%
Cc1ccc2nc(SC(C)C(=O)N3CC(C)OC(C)C3)[nH]c2c1 (stereo unspecified)	/	27%[46.1 µM]	/	/	3%	43%	-11%	4%[46.1 µM]
C/C(=N/OC(=O)c1ccccc1)c1oc(C)nc1C	/	6%	-10%	/	-1%	-7%	71%[activator]	?
CS(=O)(=O)N1CCc2cc(C(=O)NCc3ccccc3)ccc21	-6%	-15%[46.1 µM]	/	1.5%	/	/	10%	?
Cc1cc(OC(C)C(=O)NC(Cc2c[nH]c3ccc(O)cc23)C(=O)O)c2c(C)c(C)c(=O)oc2c1 (stereo unspecified)	/	/	?	/	0%	2%	12%	/
Cc1cc(C)nc(NC(=O)c2ccc([N+](=O)[O-])c(C)c2)n1	/	9%	8%	/	-1%	-6%	-7%	0%
COc1ccc(-c2csc(Nc3ccc(S(N)(=O)=O)cc3)n2)cc1	-2%	?	11%	-14%	5%	-3%[3.69 µM]	?	-10%
COc1ccc(NC(=S)NCC(c2ccco2)N2CCCC2)cc1 (stereo unspecified)	/	-18%	/	/	-7%	14%	1%	14%[46.1 µM]
CCCCCCCCCCCCCCC/C=C/[C@@H](O)[C@H](NC(=O)CCCCCCCCCCCCC)OC (tested in a mixture with another compound)	2%	/	-1%	2.6%	/	/	/	?
